# Screening results deposited in PubChem by several laboratories.
# HNF4A DNA FP: change in binding of human HNF4A to DNA, primary screen, biochemical, fluorescence polarization, FITC-DNA. Hepatocyte nuclear factor 4-alpha (Homo sapiens), P41235. 1 h. activity change, % at 10 µM. actives 0.3% (n = 360,000). AID 1224865, 2016; in the data active = activity change above about 30%, passing the limit was not always enough;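 also: controls were the assay level and a saturating level of protein; the project sought stronger binding though the title names inhibitors; some compounds called inactive have numbers as strong as hits; positive values seem to mean higher polarization but the record does not say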
# Target sequence (P41235 whole entry, looked up): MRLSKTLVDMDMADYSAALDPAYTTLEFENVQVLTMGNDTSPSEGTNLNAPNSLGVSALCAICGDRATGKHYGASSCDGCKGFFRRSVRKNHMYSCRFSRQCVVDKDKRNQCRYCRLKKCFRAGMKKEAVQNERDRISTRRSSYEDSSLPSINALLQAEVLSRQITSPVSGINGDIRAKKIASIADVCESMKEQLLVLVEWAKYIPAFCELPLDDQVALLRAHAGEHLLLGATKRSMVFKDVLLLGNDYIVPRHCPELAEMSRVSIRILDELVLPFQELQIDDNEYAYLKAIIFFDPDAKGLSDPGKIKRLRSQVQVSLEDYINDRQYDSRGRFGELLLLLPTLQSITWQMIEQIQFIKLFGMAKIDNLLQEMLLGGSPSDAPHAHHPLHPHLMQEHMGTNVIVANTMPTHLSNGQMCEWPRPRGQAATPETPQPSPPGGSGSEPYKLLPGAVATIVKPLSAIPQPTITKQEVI
# Vif A3G: inhibitors of Vif binding to APOBEC3G peptide, primary screen, biochemical, TR-FRET, GST-Vif 1-94, biotin-A3G peptide, dose response retest (AID 1117319); Virion infectivity factor (Human immunodeficiency virus type 1 group M subtype B (isolate …; TR-FRET GST-Vif / biotin-A3G peptide binding; higher % means a stronger effect; test concentration not given here; strong numbers were not always called active; inhibition, %, or IC50 in µM where a hit was titrated; actives 0.57% (n = 260,000);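 active = above the screen mean plus three standard deviations and confirmed in dose response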;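 also: Vif residues 1-94 fused to GST binding biotinylated APOBEC3G peptide 110-148; 0% = full assay without inhibitor and 100% = GST in place of GST-Vif; retest series ran down from 100 µM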
# An asterisk follows results filed as active. A portion of the library; count on the stated rates, not on these rows.
SMILES,HNF4A DNA FP,Vif A3G
COc1ccccc1NC(=O)N(C)C[C@H]1OCc2cnnn2CCCC(=O)N([C@H](C)CO)C[C@H]1C,-1.2,1%
O=C(Oc1ccc(=O)[nH]n1)c1ccccc1,0.0,-10%
O=S1(=O)CCN(Cc2ccncc2)CC1,4.3,0%
COc1ccc2nc(N(CCN(C)C)C(=O)c3ccc4ncsc4c3)sc2c1,2.9,3%
C[C@@H]1CCCCO[C@H](CN(C)Cc2ccc(C(F)(F)F)cc2)[C@H](C)CN([C@@H](C)CO)C(=O)c2cc(NC(=O)Cc3ccccc3)ccc2O1,1.2,4%
COc1ccccc1N(C)S(=O)(=O)c1ccc(C(=O)NCCCN2CCCC2=O)cc1,-0.5,-7%
Cc1noc(C)c1S(=O)(=O)N(C)C[C@@H]1OCc2cnnn2CCCC(=O)N([C@H](C)CO)C[C@@H]1C,3.4,2%
Cc1[nH]c2ccccc2c1/C=N\NC(=O)c1ccccc1Cl,9.0,8%
CCOc1ccc(/C=C/C(=O)N(CC)CC(=O)Nc2c(F)cccc2F)cc1OC,-4.6,1%
Cc1ccc(-n2c(-c3ccc(Br)cc3)n[nH]c2=S)c(C)c1,0.9,4%
Cc1ccc(S(=O)(=O)Nc2ccccc2C=NNC(=O)c2ccncc2)cc1,1.1,1%
COc1cc(C=NNc2ccccc2)ccc1OC(=O)c1ccccc1,4.8,5%
O=C(NCc1ccccn1)c1ccccc1OCc1ccccc1Cl,1.5,-5%
CCOC(=O)CCC1(C(=O)OC)C(=O)CCCCCC=C1C(=O)OC (stereo not given),-3.8,0%
NS(=O)(=O)c1ccc(CCNC(=O)C2CCCN2C(=O)c2cccs2)cc1 (stereo not given),-3.6,1%
O=C(COC(=O)c1cncc(Br)c1)Nc1ccc(S(=O)(=O)N2CCOCC2)cc1,0.3,-4%
COc1ccc(-n2ncc3c(SCC(=O)OC(C)C)ncnc32)cc1,1.9,-13%
CN(CC(=O)NCc1cccs1)CC(=O)Nc1ccccc1Cl,-0.6,-1%
Cc1ccc(S(=O)(=O)N(C)C[C@@H]2OCc3ccccc3-c3c(n(C)c4ccccc34)C(=O)N([C@H](C)CO)C[C@@H]2C)cc1,-0.4,-4%
Cc1ccc(CNC(=O)C2CCN(S(=O)(=O)N3CCC(C)CC3)CC2)cc1,2.4,1%
CCOc1ccccc1NC(=O)c1cc2ccccc2o1,4.7,-10%
O=C(c1ccc(N2C(=O)c3ccccc3C2=O)cc1)N1CCN(S(=O)(=O)c2ccccc2F)CC1,-1.2,-9%
CCCCCC(=O)N1C[C@@H](n2cc(C3CC3)nn2)[C@H](O)C[C@@H]1c1ccc(OC)cc1,-0.5,9%
CC1(C)OC(=O)C2=C(CC(CCc3ccccc3)OC2c2ccccc2)O1 (stereo not given),7.5,4%
O=C(NCCCN1CCOCC1)c1cccc(S(=O)(=O)N2CCc3ccccc32)c1,-0.5,-1%
Cc1ccc(C(C#N)=Cc2ccc3c(c2)OCO3)cc1,-3.8,5%
CC(C)C#Cc1ccc2c(c1)O[C@@H](CN(C)S(=O)(=O)c1cn(C)cn1)[C@@H](C)CN([C@H](C)CO)S2(=O)=O,2.3,1%
COc1ccc(NS(=O)(=O)c2cccc(C(=O)N3CCOCC3)c2)cc1,0.8,2%
O=C(O)C(Cc1ccccc1)N1C(=O)C=CC1=O (stereo not given),-1.9,0%
CCC(C)(C)C1CCC2(CC1)NC(=O)N(CC(=O)N1CCN(c3ccccc3OC)CC1)C2=O (stereo not given),-2.5,3%
CC1NC(=O)c2cccnc2-n2c1nc1cc(F)ccc1c2=O (stereo not given),2.1,-8%
COc1ccc(C(=O)NCC(=O)OCC(=O)c2ccccc2Br)cc1OC,0.7,-1%
Cc1cccc(OC(C)C(=O)Nc2nc(-c3cccnc3)cs2)c1 (stereo not given),5.4,-2%
Cc1cc(C)c(NC(=O)CN2CCN(S(=O)(=O)c3ccc4c(c3)OCCO4)CC2)c(C)c1,2.7,-7%
COc1ccc(C(C#N)=Cc2cccc(OC)c2OC)cc1,-2.8,-2%
CC(C)(C)NC(=S)N1CCC2CC1c1c(Cl)cccc12 (stereo not given),0.6,2%
Cc1cccc(NC(=O)COC(=O)CN2C(=O)c3ccccc3C2=O)c1,2.0,7%
CCOC(=O)C1=C(COC(=O)c2cc([N+](=O)[O-])ccc2Cl)NC(=O)NC1C (stereo not given),5.0,-7%
O=Cc1cn(CCOc2ccc(F)cc2)c2ccccc12,3.3,-2%
CC1CCN(C(=O)CCn2c(=O)oc3ccc(Cl)cc32)CC1,-0.9,0%
C[C@@H]1CCCCO[C@H](CN(C)S(=O)(=O)c2cn(C)cn2)[C@H](C)CN([C@@H](C)CO)C(=O)c2cc(NC(=O)c3ccccc3)ccc2O1,0.8,4%
COc1ccc2nc3n(c(=O)c2c1)-c1ncccc1C(=O)NC3C (stereo not given),3.0,3%
C[C@@H]1CN([C@H](C)CO)C(=O)c2cc(C#CC3CCCCC3)cnc2O[C@H]1CN(C)Cc1cccnc1,-4.2,-2%
Cc1ccn2c(-c3csc(Nc4ccc(C(=O)O)cc4)n3)c(C)nc2c1,3.3,0%
CN(C)c1ccc(C(=O)C=Cc2ccc([N+](=O)[O-])cc2)cc1,0.5,1%
COC(=O)C[C@@H]1C[C@H]2c3cc(NS(C)(=O)=O)ccc3O[C@H]2[C@H](CO)O1,6.9,6%
C[C@@H]1CN([C@@H](C)CO)C(=O)CCCn2nncc2CO[C@H]1CN(C)S(=O)(=O)c1cccc(C#N)c1,-0.4,-1%
Cc1cccc(C)c1NC(=O)CN1CCN(C(=O)CNC(=O)c2ccc(-c3ccccc3)cc2)CC1,-1.3,1%
NS(=O)(=O)c1ccc(CCNC(=O)c2cccc(S(=O)(=O)N3CCc4ccccc43)c2)cc1,-1.2,7%
COC(=O)C1(C)CCCC2(C)c3cc(OC)ccc3C(=O)C(Br)C12 (stereo not given),4.6,7%
CCOC(=O)C1=C(C)NC(C)=C(C(=O)OCC)C1c1cccc([N+](=O)[O-])c1,1.3,-3%
CN(C(=S)NC(=O)C1CCCC1)c1ccccc1,-2.8,0%
CCc1ccc(/C=C2\SC(=S)N(CCCC(=O)N(CCO)c3ccccc3)C2=O)cc1,-1.5,4%
CCn1c(=O)c2[nH]c(SC)nc2n(CC)c1=O,0.6,-3%
C[C@@H]1CN([C@@H](C)CO)C(=O)CCCn2cc(nn2)CO[C@H]1CN(C)S(=O)(=O)c1cccc(F)c1,-0.1,3%
Cc1cc2cc3n(c2nn1)N=C(Cl)CC3,-4.6,-4%
CCc1cc(C(=O)OCC(=O)NCCc2ccccc2)sc1C,1.4,2%
Cc1cc(OC(C)C(=O)NC2CC(C)(C)NC(C)(C)C2)c2c(C)c(C)c(=O)oc2c1 (stereo not given),-0.3,-2%
COc1ccc(Cc2nc3ccc(C(=O)NC4CCOC4)cc3o2)cc1OC (stereo not given),2.1,2%
[O-][N+](=Cc1c(Cl)cccc1Cl)CC1(O)CCCCC1,1.8,-1%

# An excerpt of these results, with bars between the fields.
Structure | HNF4A DNA FP | Vif A3G
COc1ccccc1NC(=O)N(C)C[C@H]1OCc2cnnn2CCCC(=O)N([C@H](C)CO)C[C@H]1C | -1.2 | 1%
O=C(Oc1ccc(=O)[nH]n1)c1ccccc1 | 0.0 | -10%
O=S1(=O)CCN(Cc2ccncc2)CC1 | 4.3 | 0%
COc1ccc2nc(N(CCN(C)C)C(=O)c3ccc4ncsc4c3)sc2c1 | 2.9 | 3%
C[C@@H]1CCCCO[C@H](CN(C)Cc2ccc(C(F)(F)F)cc2)[C@H](C)CN([C@@H](C)CO)C(=O)c2cc(NC(=O)Cc3ccccc3)ccc2O1 | 1.2 | 4%
COc1ccccc1N(C)S(=O)(=O)c1ccc(C(=O)NCCCN2CCCC2=O)cc1 | -0.5 | -7%
Cc1noc(C)c1S(=O)(=O)N(C)C[C@@H]1OCc2cnnn2CCCC(=O)N([C@H](C)CO)C[C@@H]1C | 3.4 | 2%
Cc1[nH]c2ccccc2c1/C=N\NC(=O)c1ccccc1Cl | 9.0 | 8%
CCOc1ccc(/C=C/C(=O)N(CC)CC(=O)Nc2c(F)cccc2F)cc1OC | -4.6 | 1%
Cc1ccc(-n2c(-c3ccc(Br)cc3)n[nH]c2=S)c(C)c1 | 0.9 | 4%
Cc1ccc(S(=O)(=O)Nc2ccccc2C=NNC(=O)c2ccncc2)cc1 | 1.1 | 1%
COc1cc(C=NNc2ccccc2)ccc1OC(=O)c1ccccc1 | 4.8 | 5%
O=C(NCc1ccccn1)c1ccccc1OCc1ccccc1Cl | 1.5 | -5%
CCOC(=O)CCC1(C(=O)OC)C(=O)CCCCCC=C1C(=O)OC (stereo not given) | -3.8 | 0%
NS(=O)(=O)c1ccc(CCNC(=O)C2CCCN2C(=O)c2cccs2)cc1 (stereo not given) | -3.6 | 1%
O=C(COC(=O)c1cncc(Br)c1)Nc1ccc(S(=O)(=O)N2CCOCC2)cc1 | 0.3 | -4%
COc1ccc(-n2ncc3c(SCC(=O)OC(C)C)ncnc32)cc1 | 1.9 | -13%
CN(CC(=O)NCc1cccs1)CC(=O)Nc1ccccc1Cl | -0.6 | -1%
Cc1ccc(S(=O)(=O)N(C)C[C@@H]2OCc3ccccc3-c3c(n(C)c4ccccc34)C(=O)N([C@H](C)CO)C[C@@H]2C)cc1 | -0.4 | -4%
Cc1ccc(CNC(=O)C2CCN(S(=O)(=O)N3CCC(C)CC3)CC2)cc1 | 2.4 | 1%
CCOc1ccccc1NC(=O)c1cc2ccccc2o1 | 4.7 | -10%

# Further compounds
SMILES,HNF4A DNA FP,Vif A3G
CC1CCN(C(=O)CSc2nnc(-c3ccco3)n2N)CC1,3.4,-1%
COc1ccc(Cl)cc1S(=O)(=O)NC(C)c1cnn(-c2ccccn2)c1C (stereo not given),0.1,-3%
Cc1ccccc1S(=O)(=O)N(C)C[C@@H]1OCc2cnnn2CCCC(=O)N([C@H](C)CO)C[C@@H]1C,-1.1,1%
O=C(Cn1cc(C(F)(F)F)ccc1=O)Nc1ccc2c(c1)OCO2,3.4,-3%
CCC[C@H]1CN(c2ccc(Br)cc2)C(=O)[C@@H]1CC(=O)Nc1ccccc1,-7.4,-2%
CN(C)Cc1ccccc1CNC(=O)c1ccc(Cl)c(S(=O)(=O)NC2CC2)c1,2.7,-4%
CCN(C1CCCCC1)S(=O)(=O)CCNC(=O)c1ccc(OC)cc1,-0.6,0%
O=c1c2ccccc2nnn1CCc1ccccc1,-2.3,-4%
O=C(OCc1cn([C@@H]2CN(C(=O)C3CCCCC3)[C@@H](c3ccccc3)C[C@H]2O)nn1)c1ccccc1,-0.5,-8%
Cc1cccc(N(CC(=O)N2CCCC2)S(C)(=O)=O)c1C,3.2,5%
C[C@@H]1CN([C@@H](C)CO)C(=O)CCCn2nncc2CO[C@H]1CN(C)C(=O)c1cc(-c2ccccc2)on1,-1.7,0%
C[C@H]1CN([C@@H](C)CO)C(=O)CCCn2nncc2CO[C@@H]1CN(C)C(=O)c1ccc2ccn(C)c2c1,1.0,2%
